# Assay outcomes deposited in PubChem BioAssay by several laboratories.
# T cruzi inh: T. cruzi replication inhibition; T. cruzi beta-gal in NIH3T3, luminescence, 90 h; inhibition, % (test concentration not listed); 300,000 compounds, 1.4% hits; AID 1885;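 active = mean inhibition across valid replicates above about 55%, limit read from the data; inconclusive = mean below that limit but half or more replicates reach it; inactive = mean below it, under half of replicates reach it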;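 also: signal also drops with host cell toxicity which is not excluded here; 0% = plate median of DMSO wells and 100% = zero luminescence signal; higher percent means less beta-gal luminescence so fewer parasites; stock transfer was 50 nL into about 50 µL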
# AF4-AF9 inh: inhibitors of human MLL-AF4/AF9 interaction; P42568; AlphaScreen, biotin-AF4 peptide binding to FLAG-AF9; inhibition, % at 10 µM; 350,000 compounds, 0.47% hits; AID 651704;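 active = every replicate reaching a set inhibition limit, whatever the replicate mean, cut at about 25% in these data; inconclusive = mean inhibition reaches that limit but some replicates miss it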;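 also: 0% = plate neutral control median and 100% = total signal loss; the record names both 10 and 1 µM as test concentration; the first replicate is given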
# Target sequence (P42568 whole entry, looked up): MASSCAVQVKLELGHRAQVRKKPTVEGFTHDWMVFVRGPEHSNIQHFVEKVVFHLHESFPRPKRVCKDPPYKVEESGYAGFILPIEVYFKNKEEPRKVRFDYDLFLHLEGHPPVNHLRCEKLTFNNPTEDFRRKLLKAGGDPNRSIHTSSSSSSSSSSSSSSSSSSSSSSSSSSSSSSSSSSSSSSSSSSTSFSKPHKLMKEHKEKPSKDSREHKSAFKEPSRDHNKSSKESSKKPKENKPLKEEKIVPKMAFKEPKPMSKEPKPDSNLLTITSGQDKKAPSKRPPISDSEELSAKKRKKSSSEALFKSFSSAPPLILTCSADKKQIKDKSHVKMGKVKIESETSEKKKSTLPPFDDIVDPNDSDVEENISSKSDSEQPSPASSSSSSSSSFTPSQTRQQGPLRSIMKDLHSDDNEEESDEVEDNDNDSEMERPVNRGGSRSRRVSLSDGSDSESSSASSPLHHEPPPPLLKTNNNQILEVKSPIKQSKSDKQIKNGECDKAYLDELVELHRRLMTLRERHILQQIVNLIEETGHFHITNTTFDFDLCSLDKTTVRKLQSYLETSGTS
# Beta apoptosis: blocks beta cell apoptosis. INS-1E cytokine-induced death, ATP luminescence, 48 h; percent of positive-control rescue, neutral wells zero. AID 435005. 300,000 compounds, 0.8% hits. protection from apoptosis, % (test concentration not listed);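 active = all replicates at 75% or more, or half of them and the mean; inconclusive = half reach 75% but not the mean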;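 also: 0% = cytokine-treated negative control wells and 100% = positive control rescue; higher means more ATP so stronger rescue from cytokine killing; wells of about 40 µL received 100 nL stock; the first replicate is given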
# A1 inh: inhibitors of the anti-apoptotic protein A1, read as caspase activation | MEF A1-2A-BIM cells, Caspase-Glo 3/7 luminescence, 3 h; percent of clofoctol response, vehicle zero | caspase activation, % (no concentration beside the values) | 330,000 compounds, 0.066% hits | AID 2462;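 active = over half of replicate activation scores above 10%, or exactly half above 10 with the replicate mean above 10; inconclusive = replicate mean below 10 yet half the replicates above 10; inactive = over half of replicates below 10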;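 also: wells of about 30 µL received 50 nL stock; many hits fall short of the cut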
# E coli growth: E. coli growth inhibition; OD600 absorbance (concentration not given with the values); AID 1053175; Escherichia coli growth, OD600, 23 h; hits give low values; 330,000 compounds, 0.21% hits;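 active = OD600 absorbance below the run mean of sample wells minus 3.6 SD, in any replicate, cut at about 0.56 in these data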;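 also: stock transfer was 300 nL into about 60 µL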
# FGF22 binding: shifts melting point of recombinant human FGF22 | calls only at 9.99 µM | recombinant FGF22 thermal shift, SYPRO orange fluorescence; percent of sucrose octasulfate shift, DMSO zero | 340,000 compounds, 1.5% hits | Q9HCT0;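 active = melting point raised past a set limit in the mean and every replicate; inconclusive = no clear call; three in four hits are not shown here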
# Target sequence (Q9HCT0 whole entry, looked up): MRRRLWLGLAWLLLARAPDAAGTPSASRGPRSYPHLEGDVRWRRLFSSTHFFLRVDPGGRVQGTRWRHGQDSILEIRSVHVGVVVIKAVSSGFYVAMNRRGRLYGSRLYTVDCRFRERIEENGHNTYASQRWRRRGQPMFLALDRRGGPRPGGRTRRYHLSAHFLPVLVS
# UCH37 DUB inh: human UCH37 deubiquitinating enzyme inhibition; Q9Y5K5; purified proteasome/UCH37, Ub-AMC cleavage fluorescence; inhibition, % (no concentration beside the values); 330,000 compounds, 0.33% hits; AID 588478;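 active = mean of two replicates above 20%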;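 also: 0% = compound-free wells with enzyme and 100% = wells lacking proteasome; stock transfer was 100 nL into about 20 µL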
# Target sequence (Q9Y5K5 whole entry, looked up): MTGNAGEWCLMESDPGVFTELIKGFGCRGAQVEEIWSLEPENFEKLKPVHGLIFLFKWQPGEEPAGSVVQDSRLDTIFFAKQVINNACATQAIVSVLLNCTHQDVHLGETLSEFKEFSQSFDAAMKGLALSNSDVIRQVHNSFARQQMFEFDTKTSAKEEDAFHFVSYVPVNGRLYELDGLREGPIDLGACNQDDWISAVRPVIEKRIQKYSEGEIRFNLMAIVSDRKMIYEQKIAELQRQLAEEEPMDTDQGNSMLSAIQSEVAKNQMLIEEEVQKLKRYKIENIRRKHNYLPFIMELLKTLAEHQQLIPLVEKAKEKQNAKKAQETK
#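 assay system = human UCH37 enzyme supplied as purified proteasome complex | amount = proteasome at 0.15 nM in the dispensed enzyme solution | schedule = 30 min compound-proteasome preincubation then 25 min substrate reaction, room temperature | measured by = fluorescence, ex 355 nm, em 460 nm | benchmarks = no-proteasome wells (full inhibition) and compound-free wells (no inhibition)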
# Ecoli rRNA inh: inhibits bacterial ribosomal RNA function over humanized ribosomes; 350,000 compounds, 1.6% hits; GFP signal change (wild-type ribosome), % (concentration not given with the values); E. coli WT GFP vs humanized-ribosome RFP mutants, fluorescence, 24 h; hits give low values; DMSO median 0, no signal -100; AID 720706;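 active = significant combined selectivity score with lowered wild-type GFP, culture density cut under 30%, mutant RFP and density less affected; inactive = any of these conditions unmet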; also: one replicate is shown; some compounds called inactive have numbers as strong as hits
# Ecoli rRNA inh OD600: recorded beside Ecoli rRNA inh, whose call it bears; OD600 change, %; measured here: OD600 growth;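 optical density of the mix in the first replicate; 0 = DMSO median and -100 = no signal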
# Ecoli rRNA inh RFP: also measured in Ecoli rRNA inh; calls as there; RFP signal change, %; measured here: RFP humanized mutant strains;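 first replicate; 0 = DMSO median and -100 = no signal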
# * hit, by the source's call; i = inactive; ? = inconclusive; . = no result given.
SMILES,T cruzi inh,AF4-AF9 inh,Beta apoptosis,A1 inh,E coli growth,FGF22 binding,UCH37 DUB inh,Ecoli rRNA inh,Ecoli rRNA inh OD600,Ecoli rRNA inh RFP
Cc1cc(C)c(C(=O)/C=C/c2ccc3c(c2)OCO3)c(=O)[nH]1,-3.2,-2.9,-15.1,0.7,0.741,i,8.0,17.4,12.4,0.5
CC1(C)C(=O)C2(CCCCC2)C(=O)OC1C(=O)c1ccccc1 (stereo not given),1.6,.,-11.9,-0.1,0.723,.,2.4,.,.,.
CN(C)CCCN(C(=O)c1ccco1)c1nc(-c2ccc(Cl)cc2)cs1,56.5*,26.2*,0.6,-0.2,0.636,i,4.3,-33.2,-43.1,1.5
COCCn1c(SCC(=O)Nc2sc(C)c(C)c2C#N)nnc1C(C)C,2.0,.,3.4,0.1,0.658,.,-0.5,.,.,.
O=C(CCCc1ccccc1)Nc1ccc2c(c1)OCCO2,9.0,-2.8,8.6,-4.1,0.645,.,-0.5,-8.3,-16.9,-5.0
Cc1ccc(NC(=O)c2ccccc2-c2ccccc2C(=O)O)cc1,-11.5,-2.7,.,0.0,0.668,i,1.6,-7.4,-1.7,-0.8
N#CCSc1nc2c(cc1C#N)CCCCCC2,.,.,-5.2,0.6,0.734,.,-0.3,.,.,.
Cc1ccc(OCc2csc(N)n2)cc1,-12.9,-2.9,-6.8,-4.7,0.674,i,5.1,-3.2,3.2,25.4
C/C(=C\C(=O)c1cccnc1)Nc1ccc(C)c(C)c1,-6.3,.,-7.4,-0.2,0.707,.,9.1,.,.,.
CC1(C)SC(=S)N(/N=C/c2cccnc2)C1N(O)C(=O)Nc1ccccc1 (stereo not given),21.0,-1.0,-1.7,0.7,.,i,.,4.2,3.2,5.1

# Part of the list above with just Ecoli rRNA inh RFP, AF4-AF9 inh and A1 inh.
Structure,Ecoli rRNA inh RFP,AF4-AF9 inh,A1 inh
CC1(C)C(=O)C2(CCCCC2)C(=O)OC1C(=O)c1ccccc1 (stereo not given),.,.,-0.1
CN(C)CCCN(C(=O)c1ccco1)c1nc(-c2ccc(Cl)cc2)cs1,1.5,26.2*,-0.2

# Next part.
SMILES,T cruzi inh,AF4-AF9 inh,Beta apoptosis,A1 inh,E coli growth,FGF22 binding,UCH37 DUB inh,Ecoli rRNA inh,Ecoli rRNA inh OD600,Ecoli rRNA inh RFP
CCOc1cc(-n2cnnn2)c(OCC)cc1NC(=O)c1cnccn1,6.0,.,3.1,0.2,0.733,.,-10.1,.,.,.
CCC[C@@H]1CCCO[C@@](C(=O)NCc2ccc(S(C)(=O)=O)cc2)(C(F)(F)F)C1,1.9,-4.4,0.6,-1.1,.,i,-1.1,14.1,6.2,4.0
COc1ccc(CCNC(=O)CNCC2CCCCC2)cc1OC,3.6,4.8,-2.1,-0.1,0.645,i,2.7,14.5,21.1,-0.2
O=C(NC1CCCC1)C(c1cccnc1)N(C(=O)c1csnn1)c1ccccc1 (stereo not given),-3.5,-1.4,2.3,0.4,0.686,.,1.9,10.9,7.2,-0.6
CCCS(=O)(=O)c1cscc1NC(=O)c1c(-c2c(F)cccc2Cl)noc1C,7.0,8.6,-2.7,0.4,0.638,i,2.1,-16.0,-12.3,-1.0
Cc1ccc(S(=O)(=O)N2CCN(C(=O)c3ccco3)CC2)cc1,-6.1,0.0,-4.1,0.7,0.606,i,4.5,2.0,-2.3,-1.8
COc1ccccc1C(=O)Nc1ccc(S(=O)(=O)N2CCN(C)CC2)cc1,0.5,0.1,-0.9,0.1,0.659,i,-1.9,.,.,.
CC(C)CCOc1ccc(C2(C)NC(=O)NC2=O)cc1 (stereo not given),-3.8,1.2,.,-1.0,0.709,i,2.5,2.7,-9.8,28.6
O=C(Nc1cc2c3c(c1)CC(=O)N3CCC2)C1CCCCC1,-8.2,-12.4,2.9,1.1,0.63,i,-1.8,-1.0,-0.3,-1.8
O=c1c2cccc3c2c(nn1CN1CCOCC1)-c1ccccc1-3,1.1,.,4.0,0.6,0.649,.,-23.0,.,.,.
COC(=O)CCC(=O)N1CN2CN(C(=O)CCC(=O)OC)CC([N+](=O)[O-])(C2)C1,-16.8,-42.2,2.1,1.6,0.687,i,2.6,11.5,1.8,-1.0
COc1ccc(N(C(=O)CNC(=O)c2cccs2)C(C(=O)NCC2CCCO2)c2ccccc2)cc1 (stereo not given),-6.1,-1.3,-9.9,0.3,0.639,i,-1.3,7.2,13.2,-0.5
CC(=O)c1cccc(NC(=O)COC(=O)c2ccccc2C)c1,-14.1,0.2,.,-0.7,0.649,i,5.1,-2.5,-11.9,-2.5
C=CCC(O)(CC=C)CNC(=O)C1CCC(=O)N(CCCc2ccccc2)C1 (stereo not given),-2.1,0.2,.,-0.2,0.673,i,3.8,5.0,6.7,8.0
COc1ccc2[nH]cc(CCNC(=O)c3ccco3)c2c1,.,.,-1.6,0.1,0.649,i,4.5,1.6,-2.4,1.2
CC1=NN(c2ccccc2)C(=O)/C1=C/C=C/C=C/N(C)C,9.0,11.6,31.9,-0.2,0.723,.,31.9*,-9.3,14.1,14.4
CC(OC(=O)c1nsc(Cl)c1Cl)C(=O)NCCc1ccccc1 (stereo not given),-5.6,0.3,0.4,-0.2,0.667,i,4.6,1.4,2.1,-0.5
COc1ccc(CCNc2nc(C)cc(C)c2C#N)cc1OC,5.5,0.7,-1.1,0.5,0.657,i,-2.0,-5.1,3.3,-1.1
Cc1cc(C)c(NC(=O)CN(C)C(C)C(=O)N2CCc3ccccc32)c(C)c1 (stereo not given),.,-4.0,1.9,0.3,0.686,i,3.1,0.6,-18.4,3.7
CCOc1ccc(-n2c(C)nc3cc(C(=O)NCc4ccco4)ccc32)cc1,25.3,.,2.2,-0.1,0.749,.,5.4,.,.,.
COCCn1c(C(C)C)nc2sc3ccccc3c(=O)c2c1=O,-3.2,12.5,-3.7,-0.1,0.741,i,7.0,14.8,4.8,-12.4
CCCCOCC(O)Cn1c(C)nc2ccccc21 (stereo not given),-19.7,-8.3,-4.2,-0.4,0.686,i,2.8,8.1,2.6,8.4
COc1ccc(Br)cc1CN(C)CC(=O)Nc1cc([N+](=O)[O-])ccc1OC,1.0,.,6.7,-0.8,.,.,4.6,.,.,.
CCCC1=NN2C(=N)/C(=C\c3ccc(OCCOc4ccc(NC(C)=O)cc4)c(OC)c3)C(=O)N=C2S1,3.5,-0.2,-3.4,1.5,0.652,i,2.3,7.6,0.7,3.7
COc1ccccc1CCC(=O)N(C)CC(=O)Nc1ccc(Cl)c(C(F)(F)F)c1,11.9,-4.1,.,1.0,0.643,i,1.3,-10.4,-42.9,11.3
CS(=O)(=O)c1ccc(C(=O)Nc2ccc(-c3nc4ccccc4[nH]3)cc2)cc1,-15.1,-0.5,7.9,1.1,0.725,i,-40.6,2.4,6.5,-1.0
CCSc1nnc(-c2ccc(Cl)cc2)c2ccccc12,11.5,.,10.9,-1.0,0.724,.,4.0,.,.,.
COc1ccc(C2CC(c3ccc(C)cc3)Nc3ncnn32)cc1 (stereo not given),21.6,-0.8,-6.3,0.1,0.78,i,2.3,-4.0,-14.4,1.7
CC(=O)NC(c1ccc(F)cc1)c1cccnc1 (stereo not given),-9.6,.,1.8,0.4,0.653,.,-1.6,.,.,.
CCN(C[C@H]1N[C@@](C)(C(=O)OC)[C@H]2C(=O)N(Cc3ccccc3)C(=O)[C@@H]12)C(=O)Nc1ccc(F)cc1,.,-1.1,-4.8,-0.5,0.69,i,-0.3,18.4,8.8,4.8
COc1ccccc1-n1cnc2cc(NCc3ccccn3)ccc21,12.4,.,5.5,0.9,0.65,.,1.6,.,.,.
Cc1ccccc1Cn1c(=O)n(CCCC(=O)NCc2ccco2)c(=O)c2sccc21,13.2,.,0.0,-0.7,0.706,.,2.9,.,.,.
Cc1ccc([N+](=O)[O-])cc1NC(=O)CN(C(=O)c1ccccc1Cl)C1CCCCC1,12.1,7.3,-0.6,-0.4,0.69,i,1.8,-2.2,-9.1,-3.5
O=c1cc(-c2ccc(C3CCCCC3)cc2)[nH][nH]1,-25.9,-4.4,-6.4,0.8,0.682,i,1.9,3.7,-2.4,-1.3
CN(C)c1ccc(N=Nc2ccccc2C(=O)OCC(=O)N2CCCC2)cc1,9.2,.,4.9,1.1,0.705,.,11.1,.,.,.
COc1c(C)cc(C(=O)C2CCCN(C(=O)c3cc4nc(C)cc(C)n4n3)C2)cc1C (stereo not given),12.1,-2.5,5.3,-1.0,0.65,.,-6.2,13.2,-0.1,0.7
COc1ccc(OC)c(Nc2cc(C)nc3ccc(C)cc23)c1,40.5,4.8,6.4,-0.5,0.705,i,5.4,2.4,-0.6,-2.2
O=C1CCc2cc(S(=O)(=O)N3CCN(c4ccccc4)CC3)cc3c2N1CCC3,-4.3,0.3,.,0.1,0.728,i,1.4,5.6,3.3,-7.2
O=C(COC(=O)CCCC1=NS(=O)(=O)c2ccccc2N1)Nc1ccc(Br)cc1,-6.7,-2.2,-7.8,-0.6,0.649,i,1.8,-1.9,-10.7,0.7
Cc1cccc(NC(=O)CCN2C(=O)c3ccccc3S2(=O)=O)c1C,-13.9,.,0.1,0.7,0.739,.,-0.5,.,.,.
O=C(Cn1c(=O)c2c(ncn2C2CCCC2)n(Cc2ccccc2)c1=O)N1CCc2ccccc21,7.9,.,4.6,-0.2,0.737,.,2.4,.,.,.
CC(C)C(=O)NC(=S)Nc1ccccc1F,-9.4,.,.,2.2,0.706,.,6.3,.,.,.
COC(=O)CN(c1cccc(F)c1)S(C)(=O)=O,-6.2,.,-6.6,0.7,0.756,.,0.5,.,.,.
CN1C(C(=O)Nc2cccc(O)c2)=CC(c2ccco2)=NS1(=O)=O,3.9,4.4,0.5,?,0.731,i,16.7,-2.6,0.4,2.8
COc1ccc2[nH]c(=O)c(CN(C(=O)c3cccnc3)c3ccc(C)cc3)cc2c1,-14.1,.,-0.6,0.4,0.691,.,-17.5,.,.,.
CCOC(=O)c1c(C)[nH]c(C(=O)CSc2nnc(-c3cccs3)n2Cc2ccccc2)c1C,19.0,.,11.1,-0.4,0.654,.,3.9,.,.,.
CCOCCn1[nH]c2ccccc2c1=O,.,-7.8,-6.9,-0.2,0.683,i,-1.2,0.0,14.3,-4.3
N#C/C(=C\c1c(N2CCN(c3ccccc3)CC2)nc2ccccn2c1=O)S(=O)(=O)c1ccccc1,13.2,-2.0,2.0,-0.3,0.647,i,3.9,17.8,16.6,3.5
CCn1ccc(C(=O)NC2CCCC2)n1,-7.3,-1.6,-1.9,0.0,0.662,i,3.2,8.0,9.0,7.3
CCCn1c(SCC(=O)Nc2ccccc2OC)nnc1-c1ccco1,.,-10.0,-5.2,0.2,0.692,i,4.6,-3.3,-2.9,1.5
Cc1cc(C)cc(N(CC(=O)NCc2ccccc2)C(=O)CCC(=O)Nc2ccccn2)c1,-2.4,2.0,4.6,0.0,0.701,i,-0.2,2.4,6.6,-3.5

# Only part of the results is shown (hit frequency here may not be typical).
